Compound activity: PubChem, ICCB-Longwood Screening Facility, Harvard Medical School
KSHV LANA nucl: inhibitors of KSHV LANA binding to nucleosomes. FITC-LANA1-23 / chicken nucleosome fluorescence polarization; stronger effect = lower value. 0.3% of 51,000 active. z-score (concentration not given with the values). AID 720717;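 active = both repeat wells score below -2 in polarization z-score versus plate sample wells, excluding overly bright wells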;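 note: 100 nL library stock added to about 30 µL; numbers are from one replicate; some results filed as inactive read as strong as hits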
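Assay system: FITC-LANA peptide and chicken nucleosomes; input: 240 nM purified chicken nucleosomes (480 nM peptide binding sites), final; also added: 50 nM FITC-LANA1-23 probe; medium: TEN-BT buffer, pH 7.5; doses: pin-transferred compound, 100 nL; times: 10–45 min, room temperature; technique: fluorescence polarization; replication: duplicates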
BasE inh: blocks the Acinetobacter baumannii siderophore enzyme BasE. purified BasE, fluorescence polarization binding displacement. inhibition, % (no concentration beside the values). 0.1% of 84,000 active. AID 485350;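 active = both replicates above 25% with normal brightness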;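 note: 0% = negative plate control signal and 100% = positive plate control signal; stock transfer was 100 nL into about 30 µL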
Numbers without * were called inactive; . = no result given; & = joins results of further samples.

SMILES	KSHV LANA nucl	BasE inh
Cc1cc(Cl)ccc1OCC(=O)N/N=C/c1ccc(OC2OC(CO)C(O)C(O)C2O)cc1 (stereo not given)	0.161	-1.4
Cc1ccc(S(=O)(=O)/N=C2\C=CC(=O)c3ccccc32)c(C)c1	.	1.0
CCc1ccccc1N(C)S(=O)(=O)c1ccc(-c2cc(C)no2)s1	.	0.6
N#Cc1ccc(OCC(=O)N2CCSc3ccccc32)cc1	.	0.1
NCCCc1ccccn1	0.0265	-1.6
CN(C(=O)Cc1noc2ccccc12)c1cccc(C(F)(F)F)c1	0.401	1.7
CN1CCC(CNC(=O)Nc2csc3ccccc23)CC1	0.504	.
COCCNC(=O)CN1CCc2ccccc2C1	.	-0.3
O=C(OCC(=O)N1CCc2ccccc2C1)c1ccccc1	.	-0.3
C/C=C(\C)CN1CCN(c2ccccc2)CC1	-0.229	-0.9
NNC(=O)/C(=C/c1ccccc1)NC(=O)c1ccccc1	0.412	1.2
OCCNc1nc2ccccc2n1CCOc1ccccc1	-0.236	0.8
O=C1NC(=O)N2CCCC12 (stereo not given)	.	1.2
Cc1cc(N)cc(C(=O)O)c1O	2.13	-1.2
CC(C)CCNC(=O)C1CCCN(S(=O)(=O)c2cccc3nsnc23)C1 (stereo not given)	-0.198	3.2
CCc1ccc(-c2nc(CN3CCC(C(=O)NCCc4ccccc4)CC3)c(C)o2)cc1	0.82	-3.6
COC(=O)c1cnn2c(C)c(Cc3ccc(C)cc3)c(C)nc12	0.309	-18.4
CNCc1cnn(Cc2ccccc2)c1	.	1.8
O=C(CCc1nnc(-c2ccccc2)o1)OCc1c(F)cccc1Cl	.	-1.2
O=S(=O)(NCc1ccc2c(c1)OCO2)c1ccc2c(c1)OCCO2	-1.16	-1.6
O=C(COC(=O)C1CCN(S(=O)(=O)c2cccs2)CC1)NCc1ccccc1	.	0.6
COc1ccc(NC(=O)c2ccc3c(c2)NC(=O)CO3)cc1OC	0.548	-0.8
O=C1C2C3c4ccccc4C(c4ccccc43)C2C(=O)N1c1ccncc1 (stereo not given)	-0.316	3.4
CC1CN(C(=O)CSc2nc(N)cc(=O)[nH]2)CC(C)O1 (stereo not given)	.	0.6
O=C(O)c1oc(C(=O)O)c(OCc2ccccc2)c1OCc1ccccc1	.	0.8
Cc1ccc(=O)n(Cc2ccccc2)n1	.	0.3
CC1(C)CC2CC(C)(CN2C(=O)CN2CCN(C/C=C/c3ccccc3)CC2)C1 (stereo not given)	.	-0.7
CCN1CCc2nc(N/C=C/C(=O)C(F)(F)F)sc2C1	.	-3.1
O=C(Cn1ncn2c(cc3ccccc32)c1=O)N1CCCCC1	-0.43	2.0
O=C1OC(N2CCN(Cc3ccc4c(c3)OCO4)CC2)c2ccccc21 (stereo not given)	2.34	-1.7
S=c1nc(Cc2cccs2)[nH]c2ccccc12	0.723	0.2
CCNc1nnc(-c2ccccc2)s1	0.24	-0.8
COc1ccccc1N=c1scc(-c2ccc(S(=O)(=O)N3CCOCC3)cc2)n1C	0.378	1.7
Cc1nnc(SCC#N)n1C	0.887	-0.4
CCN(CC)CCOc1ccc2c(c1)C(=O)c1cc(OCCN(CC)CC)ccc1-2	-1.72&0.154	-1.5
CC(=O)/C=C(\C)Nc1ccccc1S	-0.111	0.0
CC(Oc1ccccc1C(=O)c1cc(C#N)c(=O)n(C2CCCCC2)c1)C(=O)N1CCOCC1 (stereo not given)	.	2.5
O=C(NCNC(=O)c1ccccc1)c1ccccc1	-0.319	1.9
Cc1cc(N2C(=O)C3C4c5ccccc5C(c5ccccc54)C3C2=O)no1 (stereo not given)	0.203	0.6
CCCC1Nc2ccc(C(=O)O)cc2C2C=CCC12 (stereo not given)	0.084	9.3
N#Cc1c(/N=C/c2cccnc2)sc2c1CCC2	-0.409	3.0
COc1ccc(Oc2ncnc3c2cnn3-c2ccccc2)cc1	-0.903	0.9
Cc1cc(/N=C\N(C)C)n2c(nc3ccccc32)c1C#N	.	3.2
CCc1ccc(N2CC(C(=O)O)CC2=O)cc1 (stereo not given)	-0.083	0.9
Cc1ccc(OCC(=O)OCc2c(C)noc2C)cc1C	.	-0.9
O=C(c1cc(F)cc2c1OCOC2)N1CCN(c2ccc(F)cc2)CC1	-1.43	.
O=C(CS(=O)(=O)c1ccccc1)N(Cc1ccccn1)c1nc2ccccc2s1	0.092	3.1
O=S(=O)(c1ccccc1F)N1CCC(c2nc3ccccc3s2)CC1	-0.871	1.1
Cc1c(Cl)cccc1NC(=O)n1ncc2c(C)cccc21	1.16	-0.7
CCCS(=O)(=O)c1csc(C(=O)OC)c1NNC(=O)C(C)C	0.415	0.3
c1ccc(CNC2=NCCC2)nc1	.	0.5
CC1SC(c2ccccc2)N(Cc2ccccc2)C1=O (stereo not given)	0.869	-1.0
Cc1cc(C)c2[nH]c(=O)c(CN(C(=O)Nc3ccccc3F)C3CC3)cc2c1	1.22	-1.1
COc1ccccc1NS(=O)(=O)c1ccc2oc(=S)n(CN3CCCC3)c2c1	.	0.9
Cc1ccc(S(=O)(=O)N(C)c2ccc(OCC(=O)N3CCN(c4ncccn4)CC3)cc2)cc1	.	1.3
O=C(NCc1cccnc1)C(C(=O)c1ccc(F)cc1)n1ccccc1=O (stereo not given)	0.223	3.0
Cc1ccc2oc(-c3ccccc3)c(C(=O)O)c(=O)c2c1	0.923	.
CC1(C)CC(=O)c2cc(C(=O)N3CC[N+](C)(C)CC3)c(=O)n(-c3ccc(Cl)cc3)c2C1	.	2.8
CCOc1cccc(/C=N/c2nnc(SC)s2)c1O	.	2.8
COCCOc1cc2nc[nH]c(=O)c2cc1OCCOC	-0.315	2.7
(continued)
SMILES	KSHV LANA nucl	BasE inh
COc1ccc(NC(=O)Nc2cn(C)c3ccccc23)c(OC)c1	-1.44	1.3
O=C1CCC/C(=N\NC(=S)NCCc2ccccc2)C1	.	-0.8
CC(C)CN1C(=O)c2ccc(C(=O)NCc3ccccn3)cc2C1=O	0.276	6.9
O=c1[nH]c(-c2ccc(Cl)cc2)nc2ccc(N3CCCC3)cc12	2.11	.
C/C(=N\NC(=O)c1cc(-c2ccco2)nc2ccccc12)c1cccnc1	.	1.0
COC(=O)c1ccc(COC(=O)c2c(-c3ccccc3)noc2C)o1	.	0.8
O=C(CCS(=O)(=O)Cc1ccccc1)Nc1ccc(F)cc1F	-0.757	2.5
O=C(NC(Nc1ccccc1)(C(F)(F)F)C(F)(F)F)c1ccccc1	.	2.2
Cc1c(C(=O)NCCN2CCN(Cc3ccccc3)CC2)sc2nc3n(c(=O)c12)CCC3	0.652	2.6
O=C(CN1CCCC1c1cccs1)Nc1ccccc1C(=O)NC1CC1 (stereo not given)	.	1.2
COC(=O)c1sc(Nc2ccccc2)nc1C	-0.853	1.5
Cn1c(SCC#N)nc2c(c1=O)C1(CCCCC1)Cc1ccccc1-2	0.0595	-0.6
C/C=C/C(=O)Nc1ccc(Cl)c(Cl)c1	0.192	0.3
CC(=O)OCc1cc(=O)n2oc(C)cc2n1	-1.26	2.9
CCCCOc1cccc2c1CCN(C)C2=O	-1.51	0.9
O=S(=O)(c1ccc(F)cc1)N(CCCN1CCOCC1)Cc1cccs1	0.463	-0.7
Cc1ccc(C(C(=O)NC2CCCCC2)N(C(=O)C2COc3ccccc3O2)c2ccc3c(c2)OCO3)o1 (stereo not given)	0.194	1.7
CC(C)(C)C(=O)Nc1c2c(nn1-c1cccc(Cl)c1)CSC2	-0.468	2.7
Cc1ccc(S(=O)(=O)N/N=C/c2cc(C)n(-c3ccc(N(C)C)cc3)c2C)cc1	1.57	1.3
Cc1ccc(C=C2C(=O)OC(C)(C)OC2=O)s1	-0.875	2.9
Cc1ccc(OC(C)C(=O)NCCCN2CCOCC2)cc1C (stereo not given)	0.904	-0.7
Cc1cc2oc(C(=O)O)cc(=O)c2cc1C	0.462	-0.3
CCN(Cc1ccccc1)S(=O)(=O)c1cn(C)c(=O)n(C)c1=O	0.39	-1.0
Cc1cccc2nc(CN3CCN(Cc4ccc5c(c4)OCO5)CC3)cc(=O)n12	.	-1.0
CCCN(CCC)S(=O)(=O)Cc1ccccc1Cl	-0.18	0.7
COc1ccc(NC(=O)c2ccco2)cc1NC(=O)c1cc2ccccc2o1	2.07	-3.5
CSc1sc(C(=O)O)c(-c2ccccc2Cl)c1C#N	2.38	-0.2
O=C(Nc1cc(N2CCCCC2)ncn1)NC1(C(F)(F)F)Oc2ccccc2O1	-0.273	5.4
O=C(C(c1ccccc1)N1Cc2ccccc2C1=O)N1CCN(c2ccccc2F)CC1 (stereo not given)	1.08	-0.5
C=CCn1c(SCC(=O)NCc2ccc(F)cc2)nc2ccccc21	.	-2.7

Six entries from above, with bars between the fields:
mol | KSHV LANA nucl | BasE inh
O=C(Nc1cc(N2CCCCC2)ncn1)NC1(C(F)(F)F)Oc2ccccc2O1 | -0.273 | 5.4
O=C(C(c1ccccc1)N1Cc2ccccc2C1=O)N1CCN(c2ccccc2F)CC1 (stereo not given) | 1.08 | -0.5
Cc1ccc(S(=O)(=O)N/N=C/c2cc(C)n(-c3ccc(N(C)C)cc3)c2C)cc1 | 1.57 | 1.3
O=S(=O)(c1ccc(F)cc1)N(CCCN1CCOCC1)Cc1cccs1 | 0.463 | -0.7
CSc1sc(C(=O)O)c(-c2ccccc2Cl)c1C#N | 2.38 | -0.2
Cc1cccc2nc(CN3CCN(Cc4ccc5c(c4)OCO5)CC3)cc(=O)n12 | . | -1.0

In the list so far, these have a cyano group.
SMILES	KSHV LANA nucl	BasE inh
N#Cc1ccc(OCC(=O)N2CCSc3ccccc32)cc1	.	0.1
Cc1nnc(SCC#N)n1C	0.887	-0.4
CC(Oc1ccccc1C(=O)c1cc(C#N)c(=O)n(C2CCCCC2)c1)C(=O)N1CCOCC1 (stereo not given)	.	2.5
N#Cc1c(/N=C/c2cccnc2)sc2c1CCC2	-0.409	3.0
Cc1cc(/N=C\N(C)C)n2c(nc3ccccc32)c1C#N	.	3.2
Cn1c(SCC#N)nc2c(c1=O)C1(CCCCC1)Cc1ccccc1-2	0.0595	-0.6
CSc1sc(C(=O)O)c(-c2ccccc2Cl)c1C#N	2.38	-0.2

The results go on:
SMILES	KSHV LANA nucl	BasE inh
CC(C)C1Oc2ccccc2N(CC(=O)N(CCCN2CCOCC2)Cc2ccc(F)cc2)C1=O (stereo not given)	0.805	-5.7
CCC(=O)Nc1cc(C)c(O)c(-c2nc3cc(C)ccc3o2)c1	0.0075	-0.3
C=CCc1cccc(/C=N/NC(=O)c2ccccc2)c1O	0.647	-0.5
Cc1ccccc1NC(=S)N=Nc1c(O)n(CN2CCN(c3ccccc3)CC2)c2ccccc12	-0.91	3.1
N#Cc1ccccc1S(=O)(=O)N1CCCC1c1ccc2c(c1)OCCCO2 (stereo not given)	.	1.5
CCOC(=O)c1cc(CC)sc1/N=C/c1c(O)[nH]c(=O)[nH]c1=O	.	11.1
Cc1oc2nc[nH]c(=O)c2c1C(=O)NCCC(c1ccccc1)c1ccccc1	.	-3.6
CC1=C(CCN2CCN(CCO)CC2)C(C)(C)CCC1	0.836	-1.5
O=C1OC(c2ccccc2)=N/C1=C\c1cn(-c2ccccc2)nc1-c1cc2ccccc2o1	.	16.0
Cc1noc(C)c1C(=O)NCc1ccc(S(N)(=O)=O)cc1	-0.091	-0.9
S=C(NCc1ccco1)NC1CCCCC1	-1.27	-1.0
COc1ccc(NCC(=O)N/N=C2\CCCC(C)C2)cc1 (stereo not given)	.	2.8
Ic1ccc(OCCCCn2ccnc2)cc1	0.045	-0.2
O=C(CCN1C(=O)C2C3C=CC(C3)C2C1=O)N1CCC2(CC1)OCCO2 (stereo not given)	-0.169	-3.5
O=C(Nc1ccc(F)cc1)Nc1ccc2[nH]c(=O)[nH]c2c1	.	0.3
CCn1nnc2c(Nc3ccc(Cl)c(Cl)c3)ncnc21	-0.78	2.8
Cn1ccnc1SCC(=O)NC(=O)NCc1ccccc1	.	0.6
O=C(NNc1nc2cc3c(cc2s1)OCCO3)c1ccc(F)cc1	0.077	-2.5
CS(=O)Cc1cc(Cl)nc(-c2ccncc2)n1 (stereo not given)	-0.0115	.
CCOc1cccc2cc(C(C)N)oc12 (stereo not given)	.	0.5
CCn1cc2nc(SCC(=O)NCc3ccccc3)n(Cc3ccc(OC)cc3)c(=O)c2n1	.	-2.3
CCCCON1C(=O)c2cccc3cccc(c23)C1=O	-0.291	-0.2
C/C(=N/NC(=O)CCc1ccccc1)C1CC1	0.147	2.9
N#Cc1ccccc1COC(=O)COc1ccccc1C#N	.	-0.1
Cc1cc(C)nc(SCC(=O)OCC(=O)Nc2cc(C)nn2-c2ccccc2)n1	.	1.1
Cc1nn(-c2ccccc2)c2sc(C(=O)NCCCN3CCOCC3)cc12	.	0.3
COC(=O)CSc1nnc(-c2ccccc2)n1C	-0.628	1.4
CCOC(=O)c1cc(C)n(-c2cccc(F)c2C#N)n1	0.216	-0.2
N#C/C(=C\c1[nH]c2ccccc2c1O)C(N)=NCCc1ccccc1	.	-4.6
CCCn1c(SCC(=O)NCCc2ccccc2)nc(O)cc1=O	.	-0.1
CC(C)OCc1cc(CN2CCN(C)CC2)c(O)c2ncccc12	0.0605	0.2
CC1=Nn2c(Cn3nnc4ccccc43)nnc2SC1	.	-1.2
COC(=O)c1ccc(NC(=O)COC(=O)C2CCN(S(=O)(=O)c3cccs3)CC2)cc1	.	0.8
CC(C)N(Cc1nc(-c2ccccc2)no1)C(=O)CCN1C(=O)c2ccccc2C1=O	-0.728	2.7
O=C(NC1CC1)C1CCN(C(=O)NCc2ccccc2)CC1	-0.633	0.0
Cc1ccc(-c2nnc(SCN3C(=O)c4ccccc4C3=O)o2)cc1C	.	2.9
O=C(/C=C/c1ccc(Cl)cc1)NCCCn1ccnc1	.	2.6
O=C(CN1CCN(c2cccc(Cl)c2)CC1)NCCc1ccccc1	-0.905	-0.7
O=C1CSCC(=O)N1c1ccc(Cl)cc1	-0.767	1.5

Only part of the results is shown (hit frequency here may not be typical).
